# FPRL1 ligand: ligands of human FPRL1, also counter-screen for FPR ligands | FPRL1-expressing cells, fluorescent ligand binding inhibition, flow cytometry | AID 441 | P25090 | inhibition, %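 (tested at 6.7 µM)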 | 24,000 compounds, 0.3% hits;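 also: 0% = buffer alone and 100% = receptor blocker peptide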
# Target sequence (P25090 whole entry, looked up): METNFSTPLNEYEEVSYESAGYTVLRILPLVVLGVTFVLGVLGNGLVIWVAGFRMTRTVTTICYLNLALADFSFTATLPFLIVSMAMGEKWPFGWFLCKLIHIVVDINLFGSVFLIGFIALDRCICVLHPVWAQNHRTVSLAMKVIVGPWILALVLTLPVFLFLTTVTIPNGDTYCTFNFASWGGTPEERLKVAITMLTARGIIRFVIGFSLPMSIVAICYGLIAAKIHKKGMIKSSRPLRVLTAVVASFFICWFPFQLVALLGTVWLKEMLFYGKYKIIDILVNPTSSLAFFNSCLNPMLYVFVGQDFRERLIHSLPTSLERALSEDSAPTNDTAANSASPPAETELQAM
# VCAM-1 imaging: inhibitors of TNFa-induced VCAM-1 surface display, imaging, high-content imaging, pooled HUVEC, TNFa stimulus (AID 456). HUVEC TNFa-induced VCAM-1 surface expression, immunofluorescence imaging; numbers were filed only for top-ranked candidate wells. one-dose inhibition, % at 5 µM; IC50 in µM for titrated hits. 10,000 compounds, 0.2% hits;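 active = top tenth filtered wells with inhibition above zero that passed visual or statistical confirmation; inactive = the rest, including hits rejected on review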;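 also: 0% = stimulated vehicle wells and 100% = unstimulated cells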
# VCAM-1 inhibition: inhibitors of TNFa-induced VCAM-1 surface display, cell-based, plate reader, pooled HUVEC, TNFa stimulus (AID 454) | HUVEC TNFa-induced VCAM-1 surface immunofluorescence, plate reader; numbers were filed only for top-ranked candidate wells | inhibition, % at 5 µM | 10,000 compounds, 0.2% hits;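 active = compound among top-ranked inhibitors of TNF-induced VCAM-1 adhesion protein staining, with the hit upheld by image or statistical review; inactive = the rest, including hits rejected on review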;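 also: 0% = TNFa with vehicle and 100% = cells without TNFa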
# VCAM-1 up imaging: enhancers of VCAM-1 display on endothelial cells, imaging, high-content imaging, pooled HUVEC, TNFa stimulus (AID 457); Pooled HUVEC, TNFa-induced VCAM-1 immunofluorescence imaging; hits of this screen are not shown here; calls only; 10,000 compounds, 0.2% hits;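 active = a top-ranked rise in VCAM-1 staining upheld on image or statistical review; inactive = the rest, including candidates rejected on review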;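 also: compounds tested at 5 µM in the well; cells exposed to compound for 24 hours before fixing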
# FPR ligand: human FPR ligand, with FPRL1 counter-screen. P21462. 24,000 compounds, 0.74% hits. inhibition, %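 (tested at 6.7 µM)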. FPR-expressing cells, fluorescent ligand binding, flow cytometry;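 also: 0% = buffer wells and 100% = receptor blocker peptide wells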
# Target sequence (P21462 whole entry, looked up): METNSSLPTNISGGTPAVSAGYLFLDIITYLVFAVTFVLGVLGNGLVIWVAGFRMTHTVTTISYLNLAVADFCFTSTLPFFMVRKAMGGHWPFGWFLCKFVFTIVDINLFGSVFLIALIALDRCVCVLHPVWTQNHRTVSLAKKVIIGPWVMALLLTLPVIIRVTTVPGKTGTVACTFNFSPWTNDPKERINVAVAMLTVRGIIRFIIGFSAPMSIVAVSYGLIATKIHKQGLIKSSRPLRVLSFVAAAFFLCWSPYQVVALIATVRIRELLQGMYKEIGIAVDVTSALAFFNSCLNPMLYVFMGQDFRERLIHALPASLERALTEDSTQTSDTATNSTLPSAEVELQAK
# An asterisk follows results filed as active; i = inactive; . = no result given.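 The calls were made as follows, unless noted: active = mean above 30%; inconclusive = self-fluorescent; inactive = the rest.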 These rows are one share of the data; count on the stated rates, not on these rows.
no.	Structure	FPRL1 ligand	VCAM-1 imaging	VCAM-1 inhibition	VCAM-1 up imaging	FPR ligand
1	CCC(=O)Nc1ccccc1Nc1cc(C#N)c(C#N)cc1[N+](=O)[O-]	-4	.	.	.	-5
2	CCN(CCN(C)C)C(=O)Cn1ncc2c1-c1cc(C)ccc1OC2	4	.	.	.	3
3	CCOC(=O)c1cc(S(=O)(=O)NC2CCN(C(=O)OCC)CC2)cn1C	3	.	.	.	-4
4	COc1ccccc1N1CCN(C(=O)CCCC2=NS(=O)(=O)c3ccccc3N2)CC1	-3	.	.	.	4
5	COc1cc(-c2nc3cnccn3c2Nc2ccc3c(c2)OCCO3)ccc1O	-4	.	.	.	-3
6	Cc1ccc(/C(O)=C2\C(=O)C(=O)N(CC(C)O)C2c2cccc(F)c2)cc1 (stereo unspecified)	-2	.	.	.	-5
7	OCCN(CC(O)Cn1ccc2ccccc21)CC(O)Cn1ccc2ccccc21 (stereo unspecified)	-4	.	.	.	2
8	COc1ccc(-c2nc(CS(=O)CC(=O)NCCCN3CCCC3)c(C)o2)cc1OC (stereo unspecified)	6	.	.	.	1
9	CCn1cc(C(=O)NCCCOC)c(=O)c2cc(S(=O)(=O)N(C)C3CCCCC3)ccc21	1	i	i	i	-2
10	C=CCNC(=O)c1ccc(Cl)cc1Cl	-2	i	i	i	4
11	CCC(C)NC(=O)CSc1nc2ccccc2c(=O)n1CCCC(=O)NCC1CCCO1 (stereo unspecified)	4	.	.	.	-6
12	COCc1nnc(SCC(=O)NC(C)c2ccccc2)n1-c1ccccc1 (stereo unspecified)	-2	i	i	i	-1
13	O=C(O)c1ccccc1NCN1C(=O)C2CC=C(Cl)CC2C1=O (stereo unspecified)	-1	.	.	.	4
14	Cc1ccc(N2CC(C(=O)Nc3nnc(C)s3)CC2=O)cc1 (stereo unspecified)	-2	i	i	i	1
15	CCOC(=O)C1CCCN(C(=O)c2cc(Nc3ccc(OC)c(OC)c3)nc3ccccc23)C1 (stereo unspecified)	6	.	.	.	3
16	Cc1ccc2oc(=O)c3cnn(CC(=O)N4CCCCC4C)c3c2c1 (stereo unspecified)	-8	i	i	i	-2
17	Cc1cc(=O)n2nc(N3CCCC(C(=O)NCCc4ccccc4)C3)sc2n1 (stereo unspecified)	-2	.	.	.	1
18	COc1ccc(C2N(c3cc(Cl)ccc3OC)C(=O)C3CCCN32)c(OC)c1 (stereo unspecified)	2	.	.	.	-1
19	O=C(Sc1nnnn1C1CCCCC1)c1cccs1	1	i	i	i	5
20	Cc1cccc(C(CC(=O)N2CCCC2)c2ccccc2)c1O (stereo unspecified)	6	.	.	.	2
21	OCCNCC(O)Cn1ccc2ccccc21 (stereo unspecified)	17	i	i	i	8
22	CCOCCCNC(=O)C(c1ccc(OC)cc1)N(Cc1ccc2c(c1)OCO2)C(=O)CNC(C)=O (stereo unspecified)	-1	.	.	.	-1
23	O=C1NCC(O)=C1C=NC12CC3CC(CC(C3)C1)C2	6	.	.	.	-4
24	Cc1cc(=O)c2ccccc2s1	10	.	.	.	-3
25	Cc1cccc(NC(=O)C2c3ccccc3C(=O)N3CCc4ccccc4C23)n1 (stereo unspecified)	7	.	.	.	-1
26	CCc1nnc(NC(=O)C2CCCN2S(=O)(=O)c2ccc(C)cc2)s1 (stereo unspecified)	-6	i	i	i	0
27	CC1CCCN(C(=O)c2ccc3c(c2)C(=O)N(CCC2=CCCCC2)C3=O)C1 (stereo unspecified)	-3	.	.	.	0
28	Cc1c(NS(=O)(=O)c2ccc3c(c2)c(=O)n(C)c(=O)n3C)c(=O)n(-c2ccccc2)n1C	2	i	i	i	5
29	COC(=O)c1ccc2c(c1)NC(=O)C(N1CCOCC1)S2 (stereo unspecified)	0	.	.	.	6
30	COc1ccc(Cc2nnc(NC(=O)Cc3cccs3)s2)cc1	-2	i	i	i	-7
31	CCC(=O)N1CCCc2cc(S(=O)(=O)NCc3cccs3)ccc21	7	.	.	.	5
32	O=C(NCc1ccc(Cl)cc1)c1cc(-c2cccs2)on1	-2	.	.	.	-1

# Reprinted from above for reference:
no.	Structure	FPRL1 ligand	VCAM-1 imaging	VCAM-1 inhibition	VCAM-1 up imaging	FPR ligand
28	Cc1c(NS(=O)(=O)c2ccc3c(c2)c(=O)n(C)c(=O)n3C)c(=O)n(-c2ccccc2)n1C	2	i	i	i	5
29	COC(=O)c1ccc2c(c1)NC(=O)C(N1CCOCC1)S2 (stereo unspecified)	0	.	.	.	6
30	COc1ccc(Cc2nnc(NC(=O)Cc3cccs3)s2)cc1	-2	i	i	i	-7
31	CCC(=O)N1CCCc2cc(S(=O)(=O)NCc3cccs3)ccc21	7	.	.	.	5
32	O=C(NCc1ccc(Cl)cc1)c1cc(-c2cccs2)on1	-2	.	.	.	-1

# Next section
no.	Structure	FPRL1 ligand	VCAM-1 imaging	VCAM-1 inhibition	VCAM-1 up imaging	FPR ligand
33	Cc1ccccc1CN1C(=O)CSc2ccc(C(=O)N3CCOCC3)cc21	5	.	.	.	3
34	O=c1c2cc(N3CCOCC3)ccc2[nH]c(=S)n1CCCN1CCCCCC1	2	.	.	.	1
35	COc1ccc(CCNC(=O)CCN2C(=O)C3CC=CCC3C2=O)cc1OC (stereo unspecified)	1	i	i	i	-2
36	CCCNc1nc2c(c(=O)n(C)c(=O)n2C)n1Cc1cccc(C)c1	-4	i	i	i	1
37	COC(=O)c1ccc(C2/C(=C(\O)c3cccc(OC)c3)C(=O)C(=O)N2CCCN(C)C)cc1 (stereo unspecified)	4	.	.	.	9
38	CCSc1nnc(Cn2c(=O)sc3ccccc32)n1-c1ccccc1C	1	.	.	.	0
39	COc1ccc(NS(=O)(=O)Cc2ccccc2Cl)cn1	1	.	.	.	-2
40	O=C(CSc1nc2ccccc2c(=O)n1CCCC(=O)N1CCCC1)NCc1ccco1	-1	.	.	.	0
41	CC(=O)N1CCc2cc(S(=O)(=O)NCCC(=O)NC3CCCc4ccccc43)ccc21 (stereo unspecified)	-3	i	i	i	5
42	COc1ccc(NC(=O)C23CCC(C)(C(=O)C2)C3(C)C)cc1 (stereo unspecified)	3	i	i	i	14
43	CC1CC(C)CN(C(=O)Cn2c(=O)n(CCCCC(=O)NC3CCCC3)c(=O)c3ccccc32)C1 (stereo unspecified)	-2	.	.	.	4
44	CC1(C(=O)NC2CCCC2)CCC(=O)N1Cc1ccccc1 (stereo unspecified)	2	.	.	.	-4
45	O=C1C=C(NCc2ccco2)C2(CCCCC2)O1	2	i	i	i	-1
46	CC(C)NC(=O)CN(Cc1ccccc1)S(=O)(=O)c1ccccc1	9	.	.	.	-1
47	Cc1cc(C(=O)CSc2nc3ccccc3[nH]2)c(C)n1C	1	i	i	i	-4
48	O=C(CCc1nc2ccccc2[nH]1)N1CCc2ccccc2C1	4	.	.	.	-2
49	COc1ccc2c(c1)CCc1c(C(=O)NCc3ccco3)noc1-2	-6	.	.	.	-1
50	COc1ccc(-n2c(Cc3cc(=O)[nH]c(=O)[nH]3)nnc2SCC(=O)Nc2ccccc2)cc1	2	.	.	.	2
51	O=C(Nc1ccccc1C(=O)N1CCOCC1)C1COc2ccccc2O1 (stereo unspecified)	-3	i	i	i	-5
52	CCn1c(=O)cc(SCC(=O)Nc2ccccc2N2CCN(C)CC2)c2ccccc21	9	.	.	.	4
53	O=C(CSc1nnc2c3cc(F)ccc3nc(-c3ccccc3)n12)N1CCOCC1	1	i	i	i	-5
54	CCOC(=O)N1CCC(NC(=O)CC(NS(=O)(=O)c2ccc(C)cc2)c2ccco2)CC1 (stereo unspecified)	1	.	.	.	-1
55	CCOC(=O)c1cccc(NC(=O)C2CCN(S(=O)(=O)c3cnc[nH]3)CC2)c1	-8	.	.	.	0
56	CCOc1ccc(NC(=O)COC(=O)Cn2cnnn2)cc1OCC	4	i	i	i	-3
57	CCOc1ccc(S(=O)(=O)N2CCN(c3ccccc3)CC2)c2cccnc12	-1	.	.	.	-3
58	COCCNc1nc(C(C)(C)C)nc2c1nnn2Cc1ccccc1Cl	3	i	i	i	-4
59	O=C1NC(Nc2ccccn2)(C(F)(F)F)C(=O)N1c1ccc(F)cc1 (stereo unspecified)	4	i	i	i	8
60	COC(=O)c1ccc(NC(=O)C2CCCN2S(=O)(=O)c2ccc(C)cc2)cc1 (stereo unspecified)	0	.	.	.	1
61	Cc1cc(S(=O)(=O)N2CCN(c3ccc(F)cc3)CC2)c(C)s1	-1	.	.	.	-1
62	COc1ccc(/C(O)=C2\C(=O)C(=O)N(CC3CCCO3)C2c2cc(OC)ccc2OC)cc1 (stereo unspecified)	-8	.	.	.	8
63	CCCCN(C)CCCNC(=O)c1ccc2c(c1)NC(=O)C(N1CCOCC1)S2 (stereo unspecified)	-5	.	.	.	-4
64	O=C(c1cccc(C(=O)N2CCN(c3ncccn3)CC2)c1)N1CCN(c2ncccn2)CC1	-8	.	.	.	2
65	CNC(=O)N(C1=NCC(C)(C)S1)c1ccc(F)c(Cl)c1	0	.	.	.	7
66	COc1cccc(Oc2ccc(N)cn2)c1	-3	i	i	i	-4
67	CCOC(=O)c1ccc(Nc2nnc(C(C)(C)C)c(=O)[nH]2)cc1	-1	.	.	.	8
68	CC(C)=CCCC(C)NC(=O)NC1CCCCC1 (stereo unspecified)	-8	i	i	i	-8
69	O=C(c1cc(-c2cccs2)on1)N1CCCc2ccccc21	-4	.	.	.	0
70	CC(=O)Nc1ccccc1OCc1nnc(-c2cccs2)o1	6	i	i	i	-2
71	O=C(COC(=O)C1CC1)c1c[nH]c2ccccc12	6	i	i	i	-2
72	Cc1cc(C)c2c(=O)n(CC(=O)N3CCC(Cc4ccccc4)CC3)sc2n1	3	i	i	i	2

# 4 of the compounds above, with two lines to a compound.
# Below each SMILES – FPRL1 ligand	VCAM-1 imaging	VCAM-1 inhibition	VCAM-1 up imaging	FPR ligand
66	COc1cccc(Oc2ccc(N)cn2)c1
→ -3	i	i	i	-4
67	CCOC(=O)c1ccc(Nc2nnc(C(C)(C)C)c(=O)[nH]2)cc1
→ -1	.	.	.	8
68	CC(C)=CCCC(C)NC(=O)NC1CCCCC1 (stereo unspecified)
→ -8	i	i	i	-8
69	O=C(c1cc(-c2cccs2)on1)N1CCCc2ccccc21
→ -4	.	.	.	0

# Going on with the list:
no.	Structure	FPRL1 ligand	VCAM-1 imaging	VCAM-1 inhibition	VCAM-1 up imaging	FPR ligand
73	CCOC(=O)c1cccc(NS(=O)(=O)c2c(C)[nH]c(=O)[nH]c2=O)c1	-2	.	.	.	1
74	CN(C)CCNC(=O)c1ccc(CS(=O)(=O)c2c(Cl)cccc2Cl)o1	5	.	.	.	6
75	CCOC(=O)N1CCN(C(=O)C2CCCN(c3nc4ccc(OCC)cc4s3)C2)CC1 (stereo unspecified)	3	.	.	.	4
76	Cn1nc(CC(=O)Nc2ccc3c(c2)OCCO3)c2ccccc2c1=O	-6	.	.	.	2
77	CS(=O)(=O)N(CC(=O)Nc1cccc(F)c1)Cc1ccccc1	3	i	i	i	1
78	Cc1cc(NC(=O)CSc2nc3c(c(-c4cccnc4)c2C#N)CCC3)no1	-2	i	i	i	0
79	c1ccc(Cn2nnnc2CN2CCN(c3ncccn3)CC2)cc1	-3	i	i	i	7
80	COc1ccc(NC(=O)C2C3CCC(C3)C2C(=O)O)cc1OC (stereo unspecified)	28	.	.	.	28
81	COCc1[nH]nc2c1C(c1cc(OC)c(O)c(OC)c1)C(C#N)=C(N)O2 (stereo unspecified)	-1	i	i	i	5
82	COc1ccccc1NS(=O)(=O)CC12CCC(CC1=O)C2(C)C (stereo unspecified)	3	.	.	.	6
83	CC1(C)CC(=O)CC(C2(O)C(=O)N(Cc3ccccc3)c3ccccc32)O1 (stereo unspecified)	0	i	i	i	-1
84	CCn1c(C)csc1=NC(=O)c1ccccc1	1	.	.	.	-3
85	Cc1ccc(S(=O)(=O)C(C#N)c2nc3ccccc3nc2N2CCCCC2)cc1 (stereo unspecified)	-3	i	i	i	-3
86	CCCCS(=O)(=O)/C=C\C=C/S(=O)(=O)CCCC	20	.	.	.	-7
87	O=C(c1c[nH]c(=O)n(-c2ccccc2)c1=O)N1CCc2ccccc21	-2	.	.	.	3
88	FC(F)Sc1ccc(Nc2ncnc3nc[nH]c23)cc1	-8	.	.	.	-5
89	O=C(CN1CCOc2ccccc21)NC1CCN(Cc2ccccc2)CC1	-2	.	.	.	4
90	CCCS(=O)(=O)N1CCCC(C(=O)NCCN(CC)c2ccccc2)C1 (stereo unspecified)	4	.	.	.	1
91	COC(=O)c1cc2occc2n1CC(=O)Nc1ccc(C)cc1C	-2	.	.	.	0
